Screens (PubChem BioAssay)
PI4K2A block – inhibitors of human PI4K2A; Q9BTU6; hit rate 0.13% among 420,000; purified PI4K2A, ADP-Glo luminescence, 1 h; active compounds read low; activity change, negative = inhibition, % at 76.9 µM; AID 1346378; in the data active = activity change below about -50%; inconclusive = mostly about -30% to -49%;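 also: -100% = wells without enzyme as full effect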
Target sequence (Q9BTU6 whole entry, looked up): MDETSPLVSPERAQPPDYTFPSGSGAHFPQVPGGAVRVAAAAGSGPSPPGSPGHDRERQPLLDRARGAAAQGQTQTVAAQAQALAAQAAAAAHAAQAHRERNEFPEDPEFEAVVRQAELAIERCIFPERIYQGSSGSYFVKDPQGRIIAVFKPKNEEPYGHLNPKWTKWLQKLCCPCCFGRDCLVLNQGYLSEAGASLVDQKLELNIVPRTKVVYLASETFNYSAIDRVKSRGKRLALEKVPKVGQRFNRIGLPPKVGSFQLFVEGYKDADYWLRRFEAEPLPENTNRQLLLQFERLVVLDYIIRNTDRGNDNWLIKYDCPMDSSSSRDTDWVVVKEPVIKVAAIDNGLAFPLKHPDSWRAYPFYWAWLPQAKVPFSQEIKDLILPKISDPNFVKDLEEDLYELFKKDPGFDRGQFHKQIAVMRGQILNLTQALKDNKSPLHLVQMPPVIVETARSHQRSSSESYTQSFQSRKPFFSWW
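ADP-Glo luminescence measured ADP generated by PI4K2A enzyme (4 ug/mL before mixing) with 1.2 mM PI substrate (pre-mix) and 300 microM ATP (pre-mix). Tris pH7.5 buffer with MgCl2, Triton X-100; 1 h reaction at ambient temperature.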
G9a block – inhibitors of human histone lysine methyltransferase G9a; Q96KQ7; hit rate 8.8% among 350,000; G9a H3K9 monomethylation, AlphaScreen, 2 h; Potency, µM (doses to about 102 µM), for inactives: at the top dose activity, negative = inhibition, hits mostly inhibitors; also: potency is read from the fitted curve at half-maximal effect; % is scaled to controls: 0 for no effect and ±100 for the full control effect; nearly all actives have a fitted effect of over 75% in size
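AlphaScreen read-out: biotin-H3K9 peptide (500 nM) methylation by 20 nM enzyme with 20 uM SAM, 2 h at room temperature after 15 min compound preincubation; anti-monomethyl H3K9 antibody plus donor/acceptor beads, 10 min dark.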
Tb PGK inh – blocks T. brucei phosphoglycerate kinase | P07378 | PGK/GAPDH coupled, Kinase-Glo luminescence, 60 min | Potency, µM (titrated, usually from 57.5 µM), inactives show top-dose activity change, negative = inhibition, usual class: inhibitors | hit rate 0.043% among 380,000; also: potency is read from the fitted curve at half-maximal effect; % is scaled to controls: 0 for no effect and ±100 for the full control effect; nearly all actives have a fitted effect of over 60% in size
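Luminescent ATP detection (Kinase-Glo Plus) follows a 60-minute room-temperature incubation, with wells lacking PGK as controls. Buffer: 100 mM TEA (pH 7.6), 5 mM MgCl2, 0.01% Tween-20. Coupling enzyme GAPDH (100 nM final) supplies unstable 1,3-BPG in-well.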
GLS inh – glutaminase GLS (human) inhibition. O94925. GLS enzymatic activity, qHTS titration. hit rate 0.21% among 410,000. Potency, µM (top dose mostly 45.5 µM), for inactives: at the top dose activity change, negative = inhibition, actives largely listed as inhibitors. AID 624170; also: potency is read from the fitted curve at half-maximal effect; % is scaled to controls: 0 for no effect and ±100 for the full control effect
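Enzyme dispensed in phosphate buffer (45 mM, pH 8.2, 0.02% Tween-20), compounds pinned in, then 1 mM L-glutamine solution and the glutamate oxidase–HRP–Amplex Red mix added; fluorescence read immediately and again after 30 min at room temperature.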
ERG-DNA inh – inhibitors of human ERG Ets domain-DNA interaction; P11308; fluorescence polarization, His-ERG Ets domain / labelled DNA; hit rate 0.028% among 370,000; Potency, µM (titrated, usually from 76.9 µM), without a hit: top-dose FP activity, negative = inhibition, hits mostly inhibitors; active = well fitted inhibition curve with a large enough effect in the polarisation, with a control signal flat; inconclusive = small, poorly fitted or top-dose-only effect, or effect the other way, or a change in a side signal; inactive = no such curve, though single readings can be large or run the other way; the % refers to the polarisation;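 also: polarization taken with two DNA probes labelled with fluorescein and Texas red; potency is read from the fitted curve at half-maximal effect; % of control where 0% means no effect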
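His-tagged ERG Ets domain (1 uM in the protein solution; 300mM KCl, 50mM Tris-HCl, 1mM EDTA, 1mM DTT, pH 7.5) received compound, then a probe mix of 5 nM fluorescein-DNA and 100nM Texas-615-DNA. Fluorescence polarization was read for both dyes.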
Pin1 inhibitor – blocks the human prolyl isomerase Pin1. Potency, µM (titrated, usually from 115 µM), for inactives: at the highest dose activity, negative = inhibition, most hits filed as inhibitors. Q13526. hit rate 0.009% among 390,000. Pin1 FP peptide displacement, HiFluor488, 10 min; active = well fitted inhibition curve with a large enough effect in the polarisation, with a control signal flat, not every such curve was filed as active; inconclusive = small, poorly fitted or top-dose-only effect, or effect the other way, or a change in a side signal; inactive = no such curve, though single readings can be large or run the other way; the % refers to the polarisation; also: potency is read from the fitted curve at half-maximal effect; % is scaled to controls: 0 for no effect and ±100 for the full control effect
Target sequence (Q13526 whole entry, looked up): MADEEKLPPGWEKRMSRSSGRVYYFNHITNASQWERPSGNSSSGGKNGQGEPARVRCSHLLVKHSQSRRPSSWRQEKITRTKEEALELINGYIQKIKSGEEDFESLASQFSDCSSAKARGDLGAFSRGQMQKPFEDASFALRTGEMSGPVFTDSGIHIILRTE
HP1b binding inh – blocks HP1-beta chromodomain binding to methylated histone tails; P83916; Potency, µM (doses to about 114 µM), for the others: top-dose activity change, negative = inhibition, hits mostly inhibitors; hit rate 0.56% among 390,000; AlphaScreen HP1-beta / biotin-H3K9me3 peptide binding; also: potency is read from the fitted curve at half-maximal effect; nearly all actives have a fitted effect of over 70% in size; inactives centre near 23
Target sequence (P83916 whole entry, looked up): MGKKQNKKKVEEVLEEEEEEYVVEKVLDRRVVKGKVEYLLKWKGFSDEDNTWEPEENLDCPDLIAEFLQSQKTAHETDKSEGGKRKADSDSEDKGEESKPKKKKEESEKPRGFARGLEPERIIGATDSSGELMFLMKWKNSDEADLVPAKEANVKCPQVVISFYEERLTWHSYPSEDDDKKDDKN
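AlphaScreen: HP1-beta (50 nM) preformed 30 min with biotin-H3(1-18)K9me3 peptide (50 nM) in PBS pH 7.4, 0.01% Tween-20. Compound added for 30 min at RT, then streptavidin donor/nickel chelate acceptor beads (10 ug/mL) for 30 min.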
JMJD2A Tudor – blocks the human JMJD2A Tudor domain; hit rate 4.4% among 390,000; O75164; AID 504339; AlphaScreen JMJD2A-Tudor / H3K4me3 peptide binding; Potency, µM (titrated, usually from 114 µM), for inactives: at the top dose activity change, negative = inhibition, actives largely listed as inhibitors; also: potency is read from the fitted curve at half-maximal effect; % is scaled to controls: 0 for no effect and ±100 for the full control effect; nearly all actives have a fitted effect of over 50% in size
* hit, by the source's call; i = inactive; u = inconclusive; x = no result given; & = joins results of further samples; [ ] = another dose, or the depositor's remark. Unless noted, calls follow the shape of the dose curve; as a rule, active = well fitted curve in the direction sought with a large enough effect; inconclusive = small, poorly fitted or top-dose-only effect, or another doubt; inactive = no such curve, though single readings can be large; an effect the other way counts as inactive or inconclusive. A portion of the library; count on the stated rates, not on these rows.

Results follow in this order: PI4K2A block | G9a block | Tb PGK inh | GLS inh | ERG-DNA inh | Pin1 inhibitor | HP1b binding inh | JMJD2A Tudor
O=C(Nc1nccs1)c1ccc(-c2ccccc2[N+](=O)[O-])o1
→ -3 | x | -9% | 0% | 0% | 3% | 3% | u
O=[N+]([O-])c1cc(S(=O)(=O)N2CCCC2)ccc1NN=C1CCCC1
→ -3 | 3%[59 µM] | i | -4% | 3% | -2% | -6% | -23%
Cc1cc(C(=O)Nc2sccc2C#N)c2ccccc2n1
→ -4 | u | 2% | 17% | 36%[activator] | 95%[activator] | -3% | -25%
NC(=O)c1ccc(NC(=O)COC(=O)C2(c3ccccc3F)CCCC2)cc1
→ -7 | -1% | -2% | 3% | 9% | -6% | 16% | -21%
O=C(c1cnc(N2CCCCC2)c2ccccc12)N1CCN(c2ccccc2F)CC1
→ -1 | 23%[59 µM] | -2% | -3% | -5% | u | 21%[57 µM] | -10%
Cn1c(SCC(=O)Nc2nc3c(s2)CCCC3)nnc1-c1ccccc1
→ 1 | u | -7% | 8% | -10% | u | 11% | -22%
Cc1ccc2nc(-c3ccc(-c4cccc(Cl)c4)cc3)c(NCc3ccccc3)n2c1
→ 2 | -9%[2.33 µM] | 14% | 15% | -9% | -1% | -12% | u
O=[N+]([O-])c1cc([N+](=O)[O-])c(Oc2cc(F)ccc2F)cc1NN1CCCCC1
→ -4 | u | -7% | 16% | -10% | 1% | -3% | u
O=C(Nc1cc(F)ccc1F)C1CCN(c2nc3ccccc3n3cccc23)CC1
→ 0 | u | 10% | -6% | -2% | 1% | 4% | u
COC(=O)c1c(NC(=O)CSc2nnnn2-c2ccccc2)sc2c1CCC(C)C2 (centres undefined)
→ -2 | -11%[59 µM] | x | -3% | x | 9% | 5% | -9%
CC(=O)c1ccc(NC(=O)COc2ccccc2-c2nc(C)no2)cc1
→ 0 | -59%[59 µM] | -9% | -1% | -2% | 11% | -6% | u
O=C(c1ccccc1F)N1CCN(Cc2ccccc2F)CC1
→ 8 | 2.5µM* | -1% | 1% | 0% | -9% | -57% | x
N#CCCn1cc(/C=C2\NC(=S)N(c3ccccc3)C2=O)c(-c2ccc(F)cc2)n1
→ 2 | -18%[59 µM] | 3% | 0% | -4% | 9% | -15% | u
Cc1nn(-c2ccccc2)c(N)c1C1(O)C(=O)Nc2ccccc21 (centres undefined)
→ 3 | x | -1% | 17% | -5% | 2% | 19% | -5%
Cc1cc(C)cc(NC(=O)CSc2ccc(-c3ccccn3)nn2)c1
→ 0 | x | i | -11% | 9% | 40%[activator] | 39%[activator] | u
COc1cccc(/C=C/C2=CC(C)(C)NC(=S)N2)c1
→ 1 | 32µM* | i | -21% | 11% | 4% | u | u
O=S(=O)(NCC(c1ccccc1)N1CCc2ccccc21)c1ccc(Cl)cc1 (centres undefined)
→ -8 | u | x | 11% | 1% | u | -12% | u
CO/N=C/c1ccc(N2CCN(C(=O)c3cccc(Cl)c3)CC2)c([N+](=O)[O-])c1
→ 1 | 14µM* | i | 1% | 16% | 2% | -29% | u
Cc1cccc(/C=C2\Sc3ccc(C(=O)N4CCC(C(N)=O)CC4)cc3N(C)C2=O)c1
→ 4 | 1%[0.0925 µM] | -1% | -7% | -3% | -5% | 36%[activator] | 9%
COc1cc(CN2CCN(c3ccccc3F)CC2)c([N+](=O)[O-])cc1OC
→ -1 | 10µM* | -9% | -6% | -9% | -10% | u | u
CC(/C=N/NC(=O)Cc1cccn1C)=C\c1ccccc1
→ 1 | -21%[59 µM] | 4% | 10% | -4% | 2% | -20% | u
Cc1ccc2c(Cl)c(C(=O)NCC(c3ccco3)N3CCCC3)sc2c1 (centres undefined)
→ 2 | 4%[0.501 µM] | -2% | 11% | 2% | 28% | -11%[57 µM] | u
Nc1nccnc1C(=O)OCC(=O)Nc1ccc2[nH]c(=O)[nH]c2c1
→ -5 | u | -8% | -20% | -3% | u | 50%[activator] | u
CCOC(=O)CC(=O)CSc1nnc2sc3ccccc3n12
→ 6 | -42% | 0% | 16% | -2% | -4% | 51%[activator] | 1%
CC(=O)Nc1ccc(S(=O)(=O)Nc2ccc(-c3cn4c(C)csc4n3)cc2)cc1
→ 1 | u | 6% | 14% | 0% | u | 17%[57 µM] | u
O=[N+]([O-])c1ccc2nc(-c3ccccc3)n(OCc3ccc(Cl)cc3)c2c1
→ -5 | 24%[12.7 µM] | -11% | -3% | 2% | u | 9% | u
CC(=O)NC(c1cccs1)c1cc(Br)c2cccnc2c1O (centres undefined)
→ -2 | 8%[12.7 µM] | x | -28% | x | u | x | -31%&-28%
CC(=O)c1ccc(N2CCN(C(=O)COc3ccc4c(c3)CCC4)CC2)cc1
→ -11 | 2% | -5% | 2% | -10% | 0% | -4% | u
O=C(/C=C/c1ccco1)c1ccccc1O
→ 0 | 35µM* | -1% | -9% | 7% | 11% | u | -3%[11.4 µM]
Cc1[nH]c2ccccc2c1C1(O)C(=O)N(Cc2ccc(Cl)cc2)c2ccccc21 (centres undefined)
→ 7 | u | x | 6% | -4% | 0% | -24% | u

Entries above with a Cl atom:
Results follow in this order: PI4K2A block | G9a block | Tb PGK inh | GLS inh | ERG-DNA inh | Pin1 inhibitor | HP1b binding inh | JMJD2A Tudor
Cc1ccc2nc(-c3ccc(-c4cccc(Cl)c4)cc3)c(NCc3ccccc3)n2c1
→ 2 | -9%[2.33 µM] | 14% | 15% | -9% | -1% | -12% | u
O=S(=O)(NCC(c1ccccc1)N1CCc2ccccc21)c1ccc(Cl)cc1 (centres undefined)
→ -8 | u | x | 11% | 1% | u | -12% | u
CO/N=C/c1ccc(N2CCN(C(=O)c3cccc(Cl)c3)CC2)c([N+](=O)[O-])c1
→ 1 | 14µM* | i | 1% | 16% | 2% | -29% | u
Cc1ccc2c(Cl)c(C(=O)NCC(c3ccco3)N3CCCC3)sc2c1 (centres undefined)
→ 2 | 4%[0.501 µM] | -2% | 11% | 2% | 28% | -11%[57 µM] | u
O=[N+]([O-])c1ccc2nc(-c3ccccc3)n(OCc3ccc(Cl)cc3)c2c1
→ -5 | 24%[12.7 µM] | -11% | -3% | 2% | u | 9% | u
Cc1[nH]c2ccccc2c1C1(O)C(=O)N(Cc2ccc(Cl)cc2)c2ccccc21 (centres undefined)
→ 7 | u | x | 6% | -4% | 0% | -24% | u
